Wee1 degr inh – inhibitors of human Wee1 degradation; HeLa Luc-Wee1K328M stability, luciferase luminescence; 100% = proteasome inhibitor MG132 effect; reporter increase, % at 5 µM; actives 1.2% (n = 220,000);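 active = activation above the mean of all tested compounds plus 3 SD, set per screening run, cut at about 8.8% in these data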;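 also: cells exposed to compound for 20 h before luminescence read; 0% = DMSO alone and 100% = MG132 at 30 µM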
FXIIa inh 1536 – factor XIIa (human) inhibition | AID 800 | purified FXIIa, Boc-QGR-AMC fluorogenic substrate, 2 h | P00748 | inhibition, % at 5 µM | actives 0.3% (n = 220,000); in the data active = inhibition above about 40%;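 also: 0% = enzyme with no compound and 100% = blank without enzyme; many of its hits are not listed in these tables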
thrombin 1536 – inhibitors of human thrombin | alpha-thrombin, Boc-VPR-AMC fluorogenic substrate cleavage | actives 0.26% (n = 220,000) | P00734 | inhibition, % at 5 µM;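 active = inhibition at or above 40%; inactive = inhibition below 40%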;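 also: 0% = enzyme with no compound and 100% = wells without enzyme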
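Material: Human alpha-thrombin protein | Buffer or medium: pH 7.5 Tris-saline with Tween 20 | Reagent: Boc-VPR-AMC substrate, 15 µM final | Schedule: Reaction at ambient temperature | Detection: AMC fluorescence at 355 nm excitation and 460 nm emission | Evaluation: Percent inhibition scaled between no-compound controls and no-enzyme blanks | Controls: no-compound enzyme wells and no-enzyme blanks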
p97 ATPase inh – inhibitors of human p97 ATPase; P55072; recombinant p97 ATPase, Kinase-Glo ATP luminescence, 3 h; inhibition, % at 8 µM; actives 0.42% (n = 220,000); AID 1481; in the data active = inhibition above about 15%;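 also: 0% = DMSO vehicle and 100% = wells lacking enzyme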
FXIa inh 1536 – blocks human coagulation factor XIa protease activity. P03951. inhibition, % at 5 µM. purified FXIa, Boc-Glu-Ala-Arg-AMC fluorogenic substrate. actives 0.14% (n = 220,000);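 active = inhibition of at least 40%; inactive = inhibition below 40%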;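 also: fluorescence of freed AMC excited at 355 nm; 0% = enzyme without compound and 100% = no enzyme blank; many of its hits are not listed in these tables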
Furin inh – blocks human furin protease activity | P09958 | purified furin, fluorogenic substrate cleavage | inhibition, % at 30 µM | actives 0.061% (n = 220,000); in the data active = inhibition above about 25%; also: inactives centre near -15
PERK inh – inhibitors of human PERK kinase | AID 1416 | actives 0.17% (n = 220,000) | inhibition, % at 5.6 µM | CHO PERK-DD fusion, SEAP luminescence translation reporter | Q9NZJ5;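 active = inhibition above the mean inhibition of all tested compounds plus 3 SD, set separately per screening campaign, cut at about 2.9% in these data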;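 also: PERK kinase domain activated by AP20187 dimerizer at 100 nM; 0% = DMSO with dimerizer and 100% = rapamycin at 8.4 µM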
KCC2 mod – modulates chloride dependent transport by human KCC2 | Q9H2X9 | KCC2 cells, thallium flux FluoZin-2 fluorescence | B-score of Tl+ flux slope (higher = more flux/activation; lower = inhibition) at 10 µM | actives 2.2% (n = 190,000);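 active = thallium flux slope and its plate-corrected score both differing from the plate sample mean at a set confidence after two filtering rounds, in either direction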;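 also: slope of fluorescence scaled to starting intensity during 10 to 20 s after thallium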
Target sequence (Q9H2X9 whole entry, looked up): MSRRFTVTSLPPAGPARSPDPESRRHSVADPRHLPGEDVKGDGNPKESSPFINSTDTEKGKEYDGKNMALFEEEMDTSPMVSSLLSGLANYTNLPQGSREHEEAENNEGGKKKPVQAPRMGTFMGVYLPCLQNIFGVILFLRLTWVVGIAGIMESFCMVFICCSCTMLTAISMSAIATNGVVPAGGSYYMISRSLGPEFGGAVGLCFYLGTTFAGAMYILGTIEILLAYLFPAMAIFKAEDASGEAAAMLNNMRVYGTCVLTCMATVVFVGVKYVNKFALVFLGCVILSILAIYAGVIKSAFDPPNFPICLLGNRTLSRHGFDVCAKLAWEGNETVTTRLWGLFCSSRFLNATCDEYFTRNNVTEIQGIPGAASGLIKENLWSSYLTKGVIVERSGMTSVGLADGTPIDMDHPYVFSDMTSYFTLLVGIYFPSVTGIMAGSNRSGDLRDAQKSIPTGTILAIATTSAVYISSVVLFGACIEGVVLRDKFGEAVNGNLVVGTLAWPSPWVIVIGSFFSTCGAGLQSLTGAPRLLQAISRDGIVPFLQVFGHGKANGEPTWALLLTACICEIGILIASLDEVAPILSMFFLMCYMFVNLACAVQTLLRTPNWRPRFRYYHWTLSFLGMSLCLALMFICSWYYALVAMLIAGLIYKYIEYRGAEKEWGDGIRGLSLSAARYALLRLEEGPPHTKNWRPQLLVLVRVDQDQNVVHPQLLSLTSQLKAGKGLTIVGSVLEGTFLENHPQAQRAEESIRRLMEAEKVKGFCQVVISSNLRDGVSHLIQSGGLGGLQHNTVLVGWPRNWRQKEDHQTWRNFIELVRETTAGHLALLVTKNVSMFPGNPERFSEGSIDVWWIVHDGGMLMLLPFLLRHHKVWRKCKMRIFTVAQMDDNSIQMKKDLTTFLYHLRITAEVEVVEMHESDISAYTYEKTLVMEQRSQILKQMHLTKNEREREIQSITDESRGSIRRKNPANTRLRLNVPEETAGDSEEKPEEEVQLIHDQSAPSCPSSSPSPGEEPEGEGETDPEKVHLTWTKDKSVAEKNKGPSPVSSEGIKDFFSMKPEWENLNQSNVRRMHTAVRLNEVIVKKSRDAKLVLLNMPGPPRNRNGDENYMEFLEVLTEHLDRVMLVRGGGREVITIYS
Starred values were filed as active, the others as inactive; . = no result given; & = joins results of further samples; [ ] = dose if it differs, or a comment. Only part of the results is shown; count on the stated rates, not on these rows.

entry | Wee1 degr inh | FXIIa inh 1536 | thrombin 1536 | p97 ATPase inh | FXIa inh 1536 | Furin inh | PERK inh | KCC2 mod | SMILES
1 | -0.9 | 3.6 | -11.2 | 2.5 | -4.1 | -15.9 | 2.3 | 0.000743 | COc1ccc(OC(=O)CCc2c[nH]c3ccccc23)cc1
2 | 3.9 | 4.0 | -7.2 | 4.8 | -3.4 | -20.3 | 0.5 | -0.439 | CC(C)CC(=O)NCc1ccc2[nH]c3c(c2c1)CCCC3
3 | . | 8.9 | -1.0 | . | 2.4 | -27.0 | . | -1.36 | Cc1ccc(CNC(=O)C2CC3Cn4c(nc5cc6ccccc6cc54)C3N2C)o1 (stereo unspecified)
4 | 2.4 | 12.7 | 2.8 | 1.9 | 5.5 | -20.5 | 0.9 | -2.93 | Fc1cccc(CN2CCCCCCC2)c1
5 | -3.6 | 13.5 | 4.8 | 0.1 | 5.6 | -5.8 | 1.2 | . | CCN(CC)CCCN1C(=O)C(O)=C(C(=O)c2cc3cccc(OC)c3o2)C1c1ccncc1 (stereo unspecified)
6 | 0.5 | 14.2 | -9.9 | -8.5 | -6.3 | -7.1 | -0.5 | 0.706 | CC(C)C(=O)NC(Nc1cc(C(F)(F)F)ccc1Cl)C(Cl)(Cl)Cl (stereo unspecified)
7 | -0.2 | 8.0 | -0.9 | 4.1 | 4.6 | -22.9[20 µM] | 1.1 | 0.592 | Oc1ccc2ccccc2c1CNc1cnc2ccccc2c1
8 | 4.3 | 8.5 | -6.6 | -2.4 | 1.8 | -11.5 | 0.4 | -1.24 | CCC1(c2ccc(F)cc2)NC(=O)N(CC(=O)Nc2cc(S(=O)(=O)N(C)C)ccc2Cl)C1=O (stereo unspecified)
9 | 2.1&-1.0 | 12.4 | . | 4.4&1.2 | 3.0 | -14.3 | -0.8&1.1 | -1.53&0.45 | Nc1nc2ccc(OC(F)(F)F)cc2s1
10 | -2.3 | 11.6 | 4.6 | -4.6 | 4.2 | -13.7[20 µM] | -0.5 | . | CC12CCC(C(=O)N(CC(O)CN3CCCCC3)C1=O)C2(C)C (stereo unspecified)
11 | -2.7 | 10.2 | . | 8.6 | 11.9 | -9.1 | 0.9 | -0.105 | COc1ccc(C(=O)Sc2nncc3ccccc23)cc1
12 | -3.0 | 4.3 | 0.7 | 1.3 | 8.4 | -22.4 | 0.4 | -5.45* | CCc1ccc(-n2cccc2/C=C2/C(=N)N3C(=NC2=O)SN=C3S(C)(=O)=O)cc1
13 | 0.8 | -5.5 | -11.5 | -2.1 | -10.1 | -14.2[20 µM] | 0.8 | -1.36 | CCOC(=O)N1CCN(C(=O)c2ccc3c(=O)n(-c4ccc(F)cc4)c(=S)[nH]c3c2)CC1
14 | -1.6 | 15.6 | 0.8 | -3.6 | 1.1 | -11.6 | -0.8 | . | Cc1nc(NCC2CCCO2)[nH]c(=O)c1CCC(C)C (stereo unspecified)
15 | . | 2.5 | -3.9 | . | -2.4 | -26.6 | . | -0.00504 | COC(=O)c1ccc(C23CC4(C2)[C@H](CN(Cc2cccnc2)[C@@H]4c2ccccc2)C3c2ccc(Cl)nc2)cc1 (stereo partly specified)

Part of the list above with just Furin inh and thrombin 1536.
nr | compound | Furin inh | thrombin 1536
12 | CCc1ccc(-n2cccc2/C=C2/C(=N)N3C(=NC2=O)SN=C3S(C)(=O)=O)cc1 | -22.4 | 0.7
13 | CCOC(=O)N1CCN(C(=O)c2ccc3c(=O)n(-c4ccc(F)cc4)c(=S)[nH]c3c2)CC1 | -14.2[20 µM] | -11.5

Later entries
entry | Wee1 degr inh | FXIIa inh 1536 | thrombin 1536 | p97 ATPase inh | FXIa inh 1536 | Furin inh | PERK inh | KCC2 mod | SMILES
16 | 8.3 | 8.8 | -3.8 | -2.6 | -0.6 | -14.6 | -0.6 | 1.56 | O=C(CN1C(=O)C2C3C=CC(C3)C2C1=O)Nc1nncs1 (stereo unspecified)
17 | -0.3 | 6.7 | . | -0.5 | 2.4 | -7.7 | 0.7 | 0.924 | CC(=O)CCc1oc2ccc([N+](=O)[O-])cc2c1-c1ccc(C)o1
18 | -1.0 | 10.4 | -9.8 | -5.5 | 2.6 | -7.8 | 0.6 | 1.59 | O=C(Nc1nc2cc3c(cc2s1)OCCO3)c1ccncc1
19 | 0.9 | 0.7 | -5.2 | -6.5 | -29.3 | -11.0[20 µM] | -1.5 | 0.446 | C/C(CC1CC2=C(CC1(C)C)C(C)(C)CCC2)=N\NC(N)=S (stereo unspecified)
20 | 0.3 | 15.5 | 0.4 | 0.9 | 5.9 | -26.3 | 0.9 | -1.31 | COc1ccc(OCC(=O)Nc2cc(OC)cc(OC)c2)cc1
21 | -2.5 | 17.5 | 0.6 | 3.9 | 6.8 | -9.5[20 µM] | 2.1 | 0.543 | O=C(O/N=C\c1ccc(N2CCCCC2)c([N+](=O)[O-])c1)c1cccc(Cl)c1

A second format for part of the listing above.
entry	smiles	Wee1 degr inh	FXIIa inh 1536	thrombin 1536	p97 ATPase inh	FXIa inh 1536	Furin inh	PERK inh	KCC2 mod
9	Nc1nc2ccc(OC(F)(F)F)cc2s1	2.1&-1.0	12.4	.	4.4&1.2	3.0	-14.3	-0.8&1.1	-1.53&0.45
10	CC12CCC(C(=O)N(CC(O)CN3CCCCC3)C1=O)C2(C)C (stereo unspecified)	-2.3	11.6	4.6	-4.6	4.2	-13.7[20 µM]	-0.5	.
11	COc1ccc(C(=O)Sc2nncc3ccccc23)cc1	-2.7	10.2	.	8.6	11.9	-9.1	0.9	-0.105

From PubChem
